Assay outcomes (PubChem)
RN4220 kill: S. aureus RN4220 growth inhibition; OD600, 16 h; inhibition, % (no concentration beside the values); 330,000 tested, 0.33% active;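 active = z-score of -3 or lower and OD600 up to 0.18 on both plates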;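 also: plate controls were untreated cells for no effect and reference antibiotic for full effect; stock transfer was 100 nL into about 80 µL; one replicate is shown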
BJeLR viability: kills HRASV12-expressing BJeLR cells. BJeLR (HRASV12) viability, CellTiter-Glo ATP luminescence, 48 h; reference of the scale not given here. inhibition, % (concentration not given with the values). 300,000 tested, 0.17% active. AID 1554;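 active = replicate mean above 50%; inconclusive = above 50% but judged a plate artefact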;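 also: 50 nL library stock added to about 25 µL; numbers are from one replicate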
Mtb hypoxia inh: inhibitors of hypoxia-regulated fluorescent reporter in Mycobacterium tuberculosis; M. tuberculosis hypoxia-regulated fluorescent reporter, fluorescence; fluorescence inhibition, % (no concentration beside the values); 300,000 tested, 0.1% active;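 active = 35 to 45% if threefold the growth effect, above 45% if 1.5-fold the growth effect; inactive = the rest, general growth blockers included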;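 also: wells of about 50 µL received 100 nL stock; 0% = vehicle wells and 100% = reference inhibitor wells; whole bacteria with a GFP reporter of the hypoxia response; strong numbers were not always called active; many hits fall short of the cut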
ugtP null kill: growth inhibition of S. aureus ugtP deletion strain | AID 1259309 | growth inhibition, % (concentration not given with the values) | S. aureus RN4220 ugtP deletion, OD600 growth, 16 h; some inactives read as strong as hits | 330,000 tested, 0.54% active;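 active = z-score under -3 and OD600 up to 0.15 on both plates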;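 also: plate controls were untreated wells for no effect and antibiotic for full effect; wells of about 80 µL received 100 nL stock; the first replicate is given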
Autofluor counter: compound fluorescence in toxin protease inhibitor counterscreen. compound autofluorescence counterscreen, microsphere flow cytometry; stronger effect = higher value. fluorescence intensity (concentration not given with the values). 360,000 tested, 3.1% active. AID 624483;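 active = at least 3 SD above the mean of all compounds, about 16000 in these data; inconclusive = too few beads counted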;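 also: 100 nL of 1 mM stock went into each well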
PrP 5UTR inh: suppresses PrP 5' UTR mRNA reporter expression | AID 488862 | cell-based PrP 5' UTR mRNA reporter, plate reader | inhibition, % (concentration not given with the values) | 340,000 tested, 0.35% active;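 active = every replicate at 50% or more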;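 also: 0 = median of the neutral control wells; tested in H4 reporter cells; numbers are from one replicate; inactives centre near -14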
Mtb hypoxia inh growth: also measured in Mtb hypoxia inh; calls as there; growth inhibition, %; measured here: M. tuberculosis growth (absorbance);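 0% = vehicle and 100% = reference antibiotic; read after six days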
The depositor's hits bear a star; ? = inconclusive; . = not tested or not shown.

SMILES | RN4220 kill | BJeLR viability | Mtb hypoxia inh | Mtb hypoxia inh growth | ugtP null kill | Autofluor counter | PrP 5UTR inh
CC(C)c1ccc(NC(=O)CSc2n[nH]c(=O)n2C2CC2)cc1 | 2.1 | 5.5 | 4.5 | -4.6 | 0.4 | 6262 | -18.6
O=C(CSc1nnnn1-c1ccc(Cl)c(C(=O)O)c1)NC(c1ccccc1)c1ccccc1 | 0.8 | -4.2 | -5.2 | 6.6 | 14.9 | 4973 | -3.5
COc1ccc(C=NNC(=O)CSCc2ccc([N+](=O)[O-])cc2)cc1OC | 4.6 | . | 7.3 | 2.0 | 3.2 | . | .
CC(=O)Nc1cccc(Nc2nc(-c3ccccc3F)nc3ccccc23)c1 | -1.6 | 0.2 | 1.6 | 2.5 | -8.5 | 3102 | -5.0
CCCC(=O)Nc1ccc(C)c(O)c1 | -0.8 | 3.0 | . | . | -2.1 | 4116 | -18.6
CCOC(=O)C1(CC(C)=NNC(N)=O)CC(C)(C)OC1=O (stereo not drawn) | 3.3 | . | 3.9 | 12.0 | -2.3 | . | .
Cc1ccc(NC(NC(=O)c2cccs2)C(Cl)(Cl)Cl)cc1C (stereo not drawn) | -13.6 | -1.0 | 16.0 | 8.4 | 22.0 | 4529 | -15.5
CC(=O)c1ccc(OCC(O)CN(C)Cc2cccs2)cc1 (stereo not drawn) | 2.5 | 14.3 | . | . | 9.0 | 3613 | -3.5
CN1CCN(C(=O)CCN2C(=O)/C(=C/c3ccc(F)cc3)SC2=S)CC1 | 2.2 | 13.5 | 4.4 | -0.4 | 9.2 | 5758 | -8.7
COc1cccc(NC(=O)CN(C)C(=O)CN2C(=O)c3ccc([N+](=O)[O-])cc3C2=O)c1 | 0.6 | -1.2 | 0.0 | 4.9 | 1.8 | . | -20.9
CCc1cccc(CC)c1-n1c(SCC(=O)N2CCc3ccccc32)nc(O)cc1=O | 7.7 | . | 14.8 | 6.6 | 12.2 | 4219 | -13.4
CC(=O)Nc1ccc(NC(=O)CC(C)n2ccnc2)cc1 (stereo not drawn) | 1.4 | -7.5 | 1.4 | 0.8 | 12.2 | 3369 | -20.2
Nc1nonc1C(=O)NN=Cc1cc2c(cc1[N+](=O)[O-])OCO2 | 1.7 | . | -2.9 | -3.3 | -3.3 | . | .
COc1cc(N/N=C/c2ccccc2O)ncn1 | . | -6.3 | . | . | . | 10306 | -31.2
Cc1ccc(C)c(Nc2nc3ccc(C)cc3n3cnnc23)c1 | 6.8 | 4.0 | 10.7 | -6.8 | -1.1 | 3092 | 3.4
Cn1cccc1C(=O)OCC(=O)NC(=O)NC1CCCCC1 | 6.1 | -0.3 | 12.4 | 2.9 | -2.7 | 4294 | -28.3
Cc1cc(=O)n2[nH]c(C)c(-c3ccccc3)c2n1 | -0.3 | -5.3 | . | . | -3.8 | 2772 | -16.7
O=C(NCc1ccco1)C1CCN(c2ccc(S(=O)(=O)N3CCOCC3)cc2[N+](=O)[O-])CC1 | 2.4 | -9.4 | 7.7 | 1.0 | 5.1 | 4439 | -23.6
N#CCC(=O)Nc1ccc(C(=O)OCC(=O)c2ccc3c(c2)OCCO3)cc1 | 3.2 | -12.6 | 2.9 | 5.0 | -1.4 | 3368 | -61.7
CCN(CC)C(=O)CSCc1cnn(-c2ccccc2)c1-n1cccc1 | 7.6 | -3.1 | 4.2 | 8.6 | 1.5 | 22480* | 2.4
Cc1ccc(N(C)S(=O)(=O)c2cccc(C(=O)NCCCN3CCCC3=O)c2)cc1 | 4.1 | . | 5.3 | 10.2 | 4.0 | 5964 | -24.3
O=C(c1ccco1)N(Cc1cccc(F)c1)C1CCS(=O)(=O)C1 (stereo not drawn) | 5.2 | 4.5 | 13.3 | 6.2 | 6.5 | 5316 | -20.8
CN(Cc1nc2c(s1)CCCC2)C(=O)CCc1nnc(-c2ccccc2)o1 | 3.9 | 4.0 | 5.0 | 9.4 | 8.7 | 5340 | -38.7
Nc1nonc1-n1nnc(C(=O)N/N=C\c2ccncc2)c1CN1CCCCC1 | . | -8.9 | . | . | . | 4103 | -22.3
Cc1cc(-c2ccc(Cl)s2)n[nH]1 | -0.5 | 4.4 | -2.7 | 2.5 | -5.9 | 2600 | -106.9
CCc1nc(NC(C)C)c2oc3ccccc3c2n1 | 14.2 | -5.0 | -10.3 | 12.2 | -9.1 | 2900 | -23.7
O=C(C1CCN(S(=O)(=O)c2cccc3cccnc23)CC1)N1CCn2c1nc1ccccc12 | 4.9 | -2.4 | . | . | 10.4 | 5523 | -8.3
Cc1ccc(-c2nc3cnccn3c2Nc2c(C)cccc2C)o1 | 12.7 | -6.6 | 7.8 | 7.5 | 12.0 | 6014 | -0.8
CN(Cc1cccc(F)c1)C(=O)c1ccc(S(=O)(=O)N2CCOCC2)cc1 | 2.9 | . | 3.9 | -5.0 | 2.0 | 2935 | -0.7
CC1CC(C)(C)CC2(C1)NC(=O)N(CC(=O)Nc1cc([N+](=O)[O-])ccc1F)C2=O (stereo not drawn) | 5.2 | . | 11.5 | 4.8 | -4.2 | 3975 | -19.4
COc1ccc(-n2c(-c3ccc(Cl)cc3)c[nH]c2=S)cc1 | 1.1 | -3.9 | 2.8 | 9.0 | 13.5 | 3517 | .
C=CCN(C)CC/C=C1\c2ccccc2CSc2ccccc21 | -0.3 | -14.2 | 4.1 | 5.5 | 20.2 | 4025 | -1.7
Cc1cc(C)c(NC(=O)CN(C)C(=O)CCC(=O)c2ccc(C)s2)c(C)c1 | 1.6 | . | 5.8 | -0.3 | 2.5 | 3140 | -9.7
Cc1c(Cc2ccccc2)c(=O)oc2cc(OC(C)C(=O)NCC3CCC(C(=O)O)CC3)c(Cl)cc12 (stereo not drawn) | 23.6 | -1.8 | . | . | 12.3 | 4249 | 15.5
CN(CCCNC(=O)CCC(=O)N1CCOc2ccc(Cl)cc21)Cc1ccccc1 | 1.8 | -2.1 | 7.3 | 1.2 | 1.1 | 5746 | -16.6
CCOc1cc(N2CCOCC2)c(OCC)cc1NC(=O)C(NC(=O)c1c(F)cccc1F)C(C)C (stereo not drawn) | 3.2 | . | -9.2 | -2.6 | 1.9 | 3678 | -7.5
CCCCn1c(N)c(N(CCOC)C(=O)c2ccc3c(c2)C(=O)N(c2ccccc2C)C3=O)c(=O)[nH]c1=O | 1.4 | 2.3 | 9.4 | -10.3 | 3.4 | 5766 | -24.1
CCCCCCn1c(CN2CCN(C)CC2)nc2c1c(=O)n(C)c(=O)n2C | 2.1 | 13.2 | 2.0 | -0.4 | 10.4 | 4657 | 0.7
COc1cc(C(=O)O/N=C2\CCCc3c2ccc(OC)c3[N+](=O)[O-])cc(OC)c1OC | . | -12.4 | . | . | . | 2105 | 17.8
CCCC=NNC(=O)CNC(=O)c1ccccc1Cl | 3.2 | . | 5.9 | -4.5 | 4.0 | . | .
CCC(=O)c1ccc(N2CCN(C(=O)c3ccccc3Br)CC2)c(F)c1 | 8.7 | 2.8 | 19.3 | 8.5 | 4.5 | 4505 | -30.2
O=C(CNC(=O)c1ccc(OC(F)F)cc1)NC1CCCc2ccccc21 (stereo not drawn) | -6.4 | 8.3 | 13.6 | -6.3 | 7.8 | 5525 | -10.8
Cc1cc(C)c(C)c(S(=O)(=O)N2CCN(CC(=O)NC(=O)NCc3ccccc3)CC2)c1C | 1.6 | 5.8 | . | . | -0.1 | 2698 | -11.6
CCc1ccc(-c2cc(C(F)(F)F)n3nc(C(=O)Nc4c(C)nn(Cc5ccccc5Cl)c4C)cc3n2)s1 | 2.5 | -6.4 | -2.9 | 13.9 | 58.7 | 21126* | -16.3
CC1(C)CC(=O)C(C=Nc2ccccc2C(=O)O)=C(O)C1 | -1.0 | -0.5 | -13.4 | -2.0 | -1.7 | 5861 | -9.1
CCOC(=O)C1=C(C)Nc2ccccc2N/C1=N\S(=O)(=O)c1ccccc1 | 3.7 | . | -12.8 | -10.3 | -3.6 | ? | 3.6
CCCNC(=O)C(Cc1ccccc1)NC(=O)c1ccc(C(F)(F)F)cc1 (stereo not drawn) | 4.7 | . | 2.9 | 8.2 | -0.8 | 3808 | -10.5
O=C(N/N=C1\CC(c2ccccc2)Oc2ccccc21)c1ccccn1 (stereo not drawn) | . | 2.7 | . | . | . | 4450 | -6.1
N#Cc1ccc2c(c1)NC(=O)C1CCCN21 (stereo not drawn) | 4.0 | -17.5 | 7.0 | -4.9 | 3.0 | 5190 | -24.3
COc1ccc(C2C(C(=O)NCc3ccco3)c3ccccc3C(=O)N2C)cc1 (stereo not drawn) | 0.3 | . | 12.8 | 6.6 | 4.5 | 3684 | -2.0
CSc1nc(N)c(C(=O)NC2CCCCC2)s1 | 3.8 | -0.2 | 10.4 | 3.1 | 0.2 | 3028 | -12.3
COc1cccc(NC(=O)C2C3C=CC4(O3)C2C(=O)N(C(C)C)C4C(=O)NC2CCCCC2C)c1 (stereo not drawn) | 2.1 | -5.1 | . | . | 13.2 | 3977 | -19.7
COC(=O)c1ccc(CSCc2ccc(C(=O)OC)o2)o1 | 2.2 | -5.0 | 8.8 | 5.1 | 10.6 | 2753 | -6.3
O=C1CN(C(=O)NCC(=O)N[C@@H](Cc2ccccc2)C(=O)O)c2ccccc2N1 | 3.3 | 1.7 | . | . | 2.3 | 3941 | -3.8
c1ccc(C(c2c[nH]c3ccccc23)c2c[nH]c3ccccc23)nc1 | 3.3 | -4.6 | . | . | -18.6 | 2667 | -28.3
Brc1ccc(-n2cccc2/C=N/n2cnnc2)cc1 | . | 5.0 | . | . | . | 2696 | -9.2
COc1cc(C)c(Cl)cc1S(=O)(=O)NCCN1CCOCC1 | 4.3 | -0.9 | 7.0 | 1.7 | 8.1 | 23984* | -22.4
CCn1nc(C)c(/C=N/NC(=O)Cn2nccc2C)c1C | . | -4.4 | . | . | . | 2104 | -37.6
Cc1cc(=O)oc2cc(OC(C)C(=O)NCCCN3CCCC3=O)c(Cl)cc12 (stereo not drawn) | 2.2 | -11.0 | 14.2 | 11.3 | 5.3 | 4556 | -5.5
CN(CCOCCOc1ccc2ccccc2c1)Cc1ccccc1 | 0.4 | 6.3 | 12.0 | 8.6 | -3.6 | 7076 | 2.9

Carrying on:
SMILES | RN4220 kill | BJeLR viability | Mtb hypoxia inh | Mtb hypoxia inh growth | ugtP null kill | Autofluor counter | PrP 5UTR inh
Cc1csc(=O)n1CCC(=O)OCC(=O)Nc1cc(Cl)ccc1[N+](=O)[O-] | 2.7 | -3.6 | -0.2 | -1.0 | 1.9 | ? | -0.7
Cc1ccccc1NC(=O)CCC(=O)NN=Cc1ccncc1 | 0.1 | . | 3.7 | 12.6 | 9.8 | . | .
CC(C)[C@H](NC(=O)c1ccccc1Cl)C(=O)OCc1cc([N+](=O)[O-])cc2c1OCOC2 | 4.3 | -1.9 | -3.7 | 3.8 | 0.4 | 8128 | -43.8
COc1ccc(CN(C)CC(=O)Nc2ccccc2C(F)(F)F)cc1 | -0.8 | -4.5 | -1.6 | 7.9 | 2.6 | 4586 | 80.6*
O=c1cc(NCc2ccccc2)[nH]c(=O)[nH]1 | 2.3 | 6.4 | 16.5 | 12.4 | 0.2 | 5633 | -14.6
COc1ccccc1-n1cc2ccc([N+](=O)[O-])cc2n1 | 0.2 | -2.5 | 8.5 | 6.9 | 4.3 | 4542 | -100.4
Cc1csc(=O)n1CCC(=O)OCc1nnc(-c2ccccc2)o1 | 5.6 | -3.4 | 4.7 | 1.5 | 5.2 | . | -11.5

Complete entries, quoted from the list:
Entry for `CCOC(=O)C1(CC(C)=NNC(N)=O)CC(C)(C)OC1=O` (stereo not drawn) → RN4220 kill = 3.3; BJeLR viability = .; Mtb hypoxia inh = 3.9; Mtb hypoxia inh growth = 12.0; ugtP null kill = -2.3; Autofluor counter = .; PrP 5UTR inh = .
Entry for `CN1CCN(C(=O)CCN2C(=O)/C(=C/c3ccc(F)cc3)SC2=S)CC1` → RN4220 kill = 2.2; BJeLR viability = 13.5; Mtb hypoxia inh = 4.4; Mtb hypoxia inh growth = -0.4; ugtP null kill = 9.2; Autofluor counter = 5758; PrP 5UTR inh = -8.7
Entry for `CN(Cc1cccc(F)c1)C(=O)c1ccc(S(=O)(=O)N2CCOCC2)cc1` → RN4220 kill = 2.9; BJeLR viability = .; Mtb hypoxia inh = 3.9; Mtb hypoxia inh growth = -5.0; ugtP null kill = 2.0; Autofluor counter = 2935; PrP 5UTR inh = -0.7
